Measles inh: inhibitors of measles virus growth in infected cells; AID 745; infected Vero cells, GFP fluorescence, 64 h; hits give low values; actives 0.1% (n = 33,000); z-score (no concentration beside the values);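 active = z-score under -3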;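 note: score is relative to mean and SD of the compound wells of a plate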
Active calls of the source: *. The list is partial; count on the stated rates, not on these rows.

Preview:
Measles inh	Structure
1.5	CCOc1cccc(C(=O)Oc2cccc3ccc(C)nc23)c1
-0.55	COc1ccc(NC(=O)c2ccc3c(=O)n(CCc4ccccc4)c(=S)[nH]c3c2)c(OC)c1

This part in full, previewed entries included:
Measles inh	Structure
1.5	CCOc1cccc(C(=O)Oc2cccc3ccc(C)nc23)c1
-0.55	COc1ccc(NC(=O)c2ccc3c(=O)n(CCc4ccccc4)c(=S)[nH]c3c2)c(OC)c1
-0.37	Cc1ccccc1CSCC(=O)NCCSc1ccccn1
-0.49	CC1=C(C)CC2C(=O)N(c3ccc([N+](=O)[O-])cc3)C(=O)C2C1 (stereo unspecified)
-0.63	c1coc(CNc2nc(N3CCOCC3)nc3ccccc23)c1
-0.23	CN(C)CCNC(=O)c1cc(=O)[nH]c2ccc(S(=O)(=O)N3CCCCCC3)cc12
0.79	O=C1CN(C(=O)CCC2CCCCC2)C(c2ccc(F)cc2)c2cc(Cl)ccc2N1 (stereo unspecified)
1.1	CC1=C(C(=O)OC2CCCC2)C(c2cccc(O)c2)C2=C(CC(c3ccc(Cl)cc3)CC2=O)N1 (stereo unspecified)
-0.51	CC1=CC(C)(C)N(C(=O)NC2CCCCC2)c2cc(C)ccc21
-0.51	Cc1cc(=O)oc2cc(NC(=O)c3cc4nc(-c5cccs5)cc(C(F)(F)F)n4n3)ccc12
0.42	CSc1nnc2c(n1)OC(c1ccccn1)N(C(C)=O)c1ccccc1-2 (stereo unspecified)
-0.72	Cn1c2c(c(=O)n(C)c1=O)C(c1ccc(Br)cc1)C1=C(CCCC1=O)N2 (stereo unspecified)
0.23	Fc1ccc(-c2nc(-c3ccccc3)no2)cc1
-0.55	COc1ccccc1N(CC(=O)NC1CC2CCC1C2)S(C)(=O)=O (stereo unspecified)
-0.55	CCCNC(=O)C(=O)Nc1ccc(C(C)C)cc1
-0.91	O=c1c(-c2ccccc2)coc2c(CN(Cc3ccccc3)Cc3ccccc3)c(O)ccc12
0.44	O=C(c1cc(-c2ccco2)on1)N1CCOCC1
-2.7	CCN(C(=O)c1ccc(N2CC3CC(C2)c2cccc(=O)n2C3)c(NC(=O)c2ccc(C(C)(C)C)cc2)c1)c1cccc(C)c1 (stereo unspecified)
2.5	CCOC(=O)c1ccc2ncc(C(=O)OCC)c(Nc3ccc(OC)cc3)c2c1
-0.4	Cc1ccc2c(C)[n+](C)ccn12
-0.98	COc1ccc(OCC(=O)Nc2cc(-c3nc4ncccc4o3)ccc2C)cc1
0.41	CCc1c2ccc(C)n2cc[n+]1CC(C)=O
-0.72	CCOC(=O)c1c(C)oc2ccc(N(C(=O)c3ccccc3)S(=O)(=O)c3ccc(Cl)c([N+](=O)[O-])c3)cc12
0.06	COc1cc(C)ccc1OCCCn1c(-c2ccc(Cl)cc2)nc2ccccc2c1=O
0.28	O=C(Cn1c(=O)n(-c2ccccc2)c(=O)c2sccc21)c1cccc([N+](=O)[O-])c1
0.84	COc1ccccc1-n1nc(C(=O)O)c2ccccc2c1=O
1.1	Cc1nc2c(C#N)c[nH]n2c(=O)c1Cc1ccccc1
0.38	Cc1sc2nc(SCC(=O)O)[nH]c(=O)c2c1C
-0.37	CCc1nnc(NC(=O)Nc2ccc(OC)cc2)s1
-0.42	Cc1ccc(Cl)c2c1NC(=O)C2(O)CC(=O)c1ccc(C(C)(C)C)cc1 (stereo unspecified)
-2.8	CC1CCCN(c2ccc([N+](=O)[O-])s2)C1 (stereo unspecified)
-0.22	CCCCN(C(=O)c1cnc2n(c1=O)CCS2)c1ccccc1
-0.97	COc1cccc(C(=O)CC(=O)C(=O)Nc2ccccc2OC)c1
1.5	Cn1c(=O)c(-c2ccccc2)c(O)c2ccccc21
-0.16	O=C(O)c1nnc(Nc2ccccc2)c2ccccc12
0.5	CN(C)S(=O)(=O)N1CCN(c2ccc([N+](=O)[O-])cc2Cl)CC1
-0.89	Cc1ccc2oc(-c3ccc(NC(=O)c4ccc(F)cc4)c(C)c3)nc2c1
-1.1	CCOC(=O)c1ccc2nc(C)cc(Nc3ccc(OC)cc3)c2c1
-0.3	Clc1cccc(CSc2nc3ccccc3[nH]2)c1
-0.74	CCOc1ccc(NC(=O)C2CCCN(S(=O)(=O)c3ccc(Br)s3)C2)cc1 (stereo unspecified)
0.83	Cc1[nH]c2ccccc2c1SCCNC(=O)c1cccc(F)c1
0.69	CN=C(C)c1c(O)c2ccccc2oc1=O
-0.43	CCOc1ccc(NC(=O)c2ccc([N+](=O)[O-])cc2)cc1
0.23	CC(=O)NC(=O)c1cc2ccccc2oc1=Nc1ccc(I)cc1
-0.45	O=C(Nc1cccc(C(F)(F)F)c1)N1CCN(CC=Cc2ccccc2)CC1
-0.96	CCCc1n(CC(O)COC2CCCCC2)c2ccccc2[n+]1C (stereo unspecified)
0.39	O=C(Oc1ccc(-c2nc(-c3ccccc3Cl)no2)cc1)c1ccccc1
-0.02	CCc1nnc(SCC2=CC(=O)N3C=CC=CC3N2)nc1CC (stereo unspecified)
-0.45	Cc1ccc(CSCCC(=O)N2CCN(c3cccc(C)c3C)CC2)cc1
0.18	CCOC(=O)C(=O)Nc1nc(-c2cc3cc([N+](=O)[O-])ccc3oc2=O)cs1

Three compounds from above, arranged by SMILES length, ascending.
Measles inh	Structure
0.83	Cc1[nH]c2ccccc2c1SCCNC(=O)c1cccc(F)c1
-0.45	Cc1ccc(CSCCC(=O)N2CCN(c3cccc(C)c3C)CC2)cc1
0.39	O=C(Oc1ccc(-c2nc(-c3ccccc3Cl)no2)cc1)c1ccccc1

(continued)
Measles inh	Structure
-0.76	CC(=O)Nc1cc(C(=O)NCc2ccc(F)cc2)ccc1Sc1ccc(F)cc1
-0.62	CC1=C(C(=O)OCCc2ccccc2)C(c2cccc(Br)c2)C2=C(CCCC2=O)N1 (stereo unspecified)
-0.26	C=CCOC(=O)C1=C(C)Nc2nnnn2C1c1ccc(Cl)cc1 (stereo unspecified)
2.5	CC(C)c1ccc(S(=O)(=O)n2nnc3ccccc32)cc1
-0.89	Nc1c(C(=O)Nc2ccc(Br)cc2)sc2nc3c(c(-c4ccco4)c12)CCCCC3
-0.36	CCOC(=O)c1c(C)oc2ccc(N(C(=O)c3ccncc3)S(=O)(=O)c3cccc([N+](=O)[O-])c3)cc12
-0.63	COc1ccc(C2(CNC(=O)c3ccc(Br)o3)CCCC2)cc1OC
0.8	CC(=O)N1C(=O)NC2C1NC(=O)N2C(C)=O (stereo unspecified)
-0.69	Cc1ccc(C(=O)COC(=O)C(C)N2C(=O)C3C4C=CC(C4)C3C2=O)cc1 (stereo unspecified)
-0.2	O=C(O)c1ccc(N2CCN(c3ccccc3)CC2)c([N+](=O)[O-])c1

As a working copy, some entries already given:
Measles inh	Structure
0.18	CCOC(=O)C(=O)Nc1nc(-c2cc3cc([N+](=O)[O-])ccc3oc2=O)cs1
-0.76	CC(=O)Nc1cc(C(=O)NCc2ccc(F)cc2)ccc1Sc1ccc(F)cc1

(cont.)
Measles inh	Structure
-0.94	COC(=O)c1cc(C(=O)Nc2ccc(C(N)=O)cc2)cc([N+](=O)[O-])c1
2.3	O=C(NCc1ccccc1)c1cc2nc(-c3ccc([N+](=O)[O-])cc3)cc(C(F)(F)F)n2n1
-0.82	O=C(CCSCc1ccccc1Cl)NCc1cccs1
-1.5	COc1ccc(N2C(=O)CSC2c2cccc(OC)c2OC)cc1 (stereo unspecified)
0.39	COc1ccc(CCN(Cc2ccccn2)S(=O)(=O)c2ccc(Cl)cc2)cc1OC
-0.36	Cc1cccn2c(Nc3ccccc3)c(-c3ccsc3)nc12
2.4	Cc1ccc(F)cc1NC(=O)c1cc(Cl)ccc1Nc1ccccc1
-0.1	CCOC(=O)c1c(C)sc2c1N(C(C)=O)c1cc(Br)ccc1S2
-0.57	Cc1ccc(-n2nc(C)c(-c3cccc([N+](=O)[O-])c3)c2C)cc1C
5	N#Cc1c(SCC(=O)c2ccccc2)nsc1SCC(=O)c1ccccc1
-0.27	[O-][n+]1onc2c(-c3ccccc3)nnc(-c3ccccc3)c21
1.2	COc1ccc(C2C3=C(CC(C)(C)CC3=O)NC3=C2C(=O)CC(C)(C)C3)cc1Cl
0.14	O=[N+]([O-])c1cnc(Nc2ccccc2)nc1Nc1ccccc1
-0.65	Cc1c(NC(=O)c2cc3c(=O)n4ccccc4nc3s2)c(=O)n(-c2ccccc2)n1C
-0.47	COC(=O)CS(=O)(=O)c1cc(Br)cc2c1N(C(C)=O)CC2
-0.6	Cc1occc1C(=O)Nc1ccc(Br)cc1
-0.19	CC(=O)N1CCc2cc(Br)cc(S(=O)(=O)CC(=O)NC3CCCc4ccccc43)c21 (stereo unspecified)
-0.11	Cc1ccc(C2=NN(CC(=O)NC3CC3)C(=O)CC2)cc1
-0.64	COC(=O)c1c(NC(=O)c2cc3ccccc3c(=O)o2)sc2c1CCC(C)C2 (stereo unspecified)
-0.27	COc1ccc(Cl)c(NCCC(=O)O)c1
0.57	COc1cc(NS(=O)(=O)c2ccc(NC(=O)C(C)C)cc2)nc(OC)n1
0.55	CCS(=O)(=O)N1CCC(C(=O)NCCCN2CCC(C)CC2)CC1
0.18	CSc1nnc2c(n1)OC(c1ccc(OC(C)=O)c(Br)c1)N(C(C)=O)c1ccccc1-2 (stereo unspecified)
-0.05	COc1ccc(-n2cnc3cc(C(=O)N4CCOCC4)ccc32)cc1
0.23	O=C(CN1CCCC1)N1c2ccccc2C=Cc2ccccc21
4.6	COc1ccc2nc(C)cc(Nc3ccccc3O)c2c1
0.13	O=C1CSC(c2ccccc2[N+](=O)[O-])N1 (stereo unspecified)
0.56	Cc1cccc(CN2C(=O)CSc3ccc(C(=O)NCc4cccnc4)cc32)c1
-0.53	O=C(OCCN(C1=NS(=O)(=O)c2ccccc21)c1ccccc1Cl)c1ccco1
0.45	COC(=O)c1nc2nc(C)cc(=O)n2[nH]1
0.06	O=C1CC(N2CCN(c3ccccc3O)CC2)C(=O)N1c1ccccc1 (stereo unspecified)
-0.4	CCOc1ccc(C2/C(=C(\O)c3ccccc3)C(=O)C(=O)N2c2ccc(C)c(Br)c2)cc1 (stereo unspecified)
0.34	O=C(NC12CC3CC(CC(C3)C1)C2)C(F)(F)F
0.72	CCN(CC)C(=O)C1C(=O)N(CCO)C2(C)CC1c1ccccc1O2 (stereo unspecified)
0	CCN(CC)C(=O)C1CCCN(C(=O)Nc2ccc3nsnc3c2)C1 (stereo unspecified)
-0.39	COc1ccc(N2CCN(C(=O)CCC(=O)Nc3ccc4nc(N5CCCCC5)cc(C)c4c3)CC2)cc1
0.11	CN(C)c1ccc(NC(=O)c2cccc([N+](=O)[O-])c2)cc1
0.02	CCOc1ccc2c(c1)C(C)=CC(C)(C)N2C(=O)C(C)N1C(=O)c2ccccc2C1=O (stereo unspecified)
0.04	Cc1ccc(C(=O)Nc2cc(N)ccc2N)cc1
-1.1	Cc1ccc(N2C(=O)NC3CC2(C)Oc2ccc([N+](=O)[O-])cc23)cc1Cl (stereo unspecified)

Reformatted with each value named: entries from further up.
O=C(NC12CC3CC(CC(C3)C1)C2)C(F)(F)F
  Measles inh: 0.34
CN(C)c1ccc(NC(=O)c2cccc([N+](=O)[O-])c2)cc1
  Measles inh: 0.11

Carrying on.
Measles inh	Structure
2	COCCNC(=O)c1ccc2c(c1)N(C)C(=O)c1ccccc1S2
1.4	Cc1ccc(C2C=C(c3cccs3)Oc3ccccc32)cc1 (stereo unspecified)
0.79	CCCCOc1ccc(C(=O)Nc2ccc(Cl)c(-c3nc4ncccc4o3)c2)cc1
0.54	COC(=O)c1ccc(C(=O)Nc2nc3ccc4nc(C)sc4c3s2)cc1
0.08	CCCCOC(=O)c1sc2nc3c(c(-c4cccs4)c2c1N)CCCC3
1.1	CCOc1ccc(-c2nnc(SCC(=O)N3CCCC3)o2)cc1
-0.07	Cc1ccc(-c2ccc(=O)n(CCC(=O)NCc3cccnc3)n2)cc1
-1.8	CSc1cccc(NC(=O)Cc2c(C(=O)O)[nH]c3ccc(Cl)cc23)c1
-0.58	O=C(O)CN1CCOCC1
0.73	COc1ccc(S(=O)(=O)N2CCC(C(=O)NCc3ccccc3Cl)CC2)cc1
-0.35	COC(=O)c1c[nH]c2ccc(S(=O)(=O)N3CCCC3)cc2c1=O
0.32	COc1ccc(N2C(=O)C3C4C=CC(C3C2=O)C2C3C(=O)N(c5ccc(OC)cc5)C(=O)C3C42)cc1 (stereo unspecified)
-0.39	O=C(COC(=O)c1ccc(OC(=O)c2ccc([N+](=O)[O-])cc2)cc1)c1ccccc1
-0.77	CC1=C(C(=O)Nc2cccc(C)c2C)C(c2ccccc2Br)NC(=O)N1 (stereo unspecified)
-0.71	Nc1cc(NCCO)ccc1[N+](=O)[O-]
-0.1	COc1ccc(C2CC(=O)C3=C(C2)NC(C)=C(C(=O)OC(C)C)C3c2ccc(SC)cc2)cc1OC (stereo unspecified)
-1.1	O=C(C1CC1)N1CCc2cc(S(=O)(=O)Nc3cccc(Cl)c3)ccc21
-0.47	CCOc1ccc(-c2cc(C(N)=O)on2)cc1
0.02	Nc1ccc(-c2nc3c(Cl)cccc3[nH]2)cc1
-0.73	COc1ccc(C2Nc3ccccc3C(=O)N2Cc2ccccc2)cc1CN1C(=O)c2ccccc2C1=O (stereo unspecified)
-1.6	CC1CCc2ccccc2N1S(=O)(=O)c1cccs1 (stereo unspecified)
-1.3	COc1ccc(-c2nc(SCC(=O)NCc3ccc(F)cc3)c3c(=O)n(C)c(=O)n(C)c3n2)cc1
-0.04	CCCOc1cccc(C2C3=C(CC(C)(C)CC3=O)Nc3ccccc3N2C(C)=O)c1 (stereo unspecified)
0.03	Cc1ccc(NC(=O)CSc2nc(N)cc(=O)[nH]2)c(C)c1
-0.1	CCOC(=O)c1cnc2ccc(OC)cc2c1Nc1cccc(Cl)c1
-0.24	COc1ccc(NS(=O)(=O)C2CCS(=O)(=O)C2)cc1 (stereo unspecified)
-0.13	CSc1nnc(-c2ccco2)c(-c2ccco2)n1

Screening results: PubChem BioAssay, Emory University Molecular Libraries Screening Center
